Source: PubChem
miR-21 reporter = qHTS Assay for Modulators of miRNAs and/orActivators of miR-21; 340,000 tested, under 10 active; HeLa miR-21 FLuc reporter, luciferase, 48 h; Potency, µM (highest dose often 38.3 µM), without a hit: at the top dose reporter change, positive = more light; active = well fitted rising curve with a large enough effect; inconclusive = small, poorly fitted or top-dose-only effect; inactive = no such curve, though single readings can be large or run the other way;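 further: % of control where 0% means no effect; miR-21 action dims this reporter so a rising signal means less miR-21 action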
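Compounds were titrated across several concentrations (up to approximately 40 uM) and incubated 48 hours with HeLa miR-21-FLuc reporter cells (miR-21 target sequence downstream of FLuc, endogenous miR-21). Readout was firefly luciferase luminescence after lytic detection reagent.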
Rango-impB inh = qHTS Assay for Inhibitors of Rango (Ran-regulated importin-beta cargo) - Importin beta complex formation | Rango CFP/YFP FRET sensor + importin beta, 45 min | AID 540263, 2011 | Importin subunit beta-1 (Homo sapiens), Q14974 | hit rate 0.031% among 340,000 | Potency, µM (titrated, usually from 92.2 µM), for the others: top-dose inhibition of complex formation; active = rising FRET ratio curve, often small or poorly fitted; inconclusive = mostly compound fluorescence or quenching in the first reads; inactive = flat curves in all reads;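 further: potency means the concentration at half of the fitted maximal effect; 0% = DMSO wells and 100% = buffer wells lacking importin beta; nearly all actives have a fitted effect of over 15% in size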
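Inhibition scored from the CFP 486 nm/YFP 530 nm FRET ratio 45 min after adding 0.125 microM importin beta to 50 nM Rango biosensor preincubated 5 min with compound (room temperature, PBS with DTT, Tween-20, BSA). No-importin wells as positive control.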
Rango release inh = qHTS Assay for Inhibitors of RanGTP induced Rango (Ran-regulated importin-beta cargo) - Importin beta complex dissociation; hit rate 0.071% among 340,000; Snurportin-1 (Homo sapiens) + GTP-binding nuclear protein Ran (Homo sapiens) + Importin …; AID 540253, 2011; Potency, µM (series often up to 46.1 µM), for the others: at the top dose activity change, negative = inhibition; Biochemical FRET Rango-importin beta, RanGTP-induced dissociation; active means falling FRET ratio curve, often poorly fitted, with flat reads before Ran was added; inconclusive means other falling curves, or compound fluorescence or quenching; inactive means flat or rising ratio curve;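 further: potency means the concentration at half of the fitted maximal effect; % of control where 0% means no effect; nearly all actives have a fitted effect of over 45% in size; -100% = wells without RanGTP and RCC1; the record marks most hits as doubtful in a second field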
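Rango (0.1 uM)–importin beta (0.25 uM) complex; RanGTP-RCC1 trigger; 45 min RT; CFP/YFP FRET read.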
GLA inh pH 4.5 = qHTS Assay for Inhibitors of Human alpha-Galactosidase at pH 4.5; Alpha-galactosidase A (Homo sapiens), P06280; purified enzyme, 4-MU-alpha-Gal fluorescence, pH 4.5; activity change, negative = inhibition, % at 105 µM; 230,000 tested, under 10 active; AID 1467, 2008; inconclusive = small, poorly fitted or top-dose-only inhibition, or a rising curve; inactive = flat fitted curve, though single readings scatter; no compound was filed as active;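 further: 0% = full activity with enzyme and -100% = basal without enzyme; dose as in the result columns while the protocol names 77 µM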
Target sequence (P06280 whole entry, looked up): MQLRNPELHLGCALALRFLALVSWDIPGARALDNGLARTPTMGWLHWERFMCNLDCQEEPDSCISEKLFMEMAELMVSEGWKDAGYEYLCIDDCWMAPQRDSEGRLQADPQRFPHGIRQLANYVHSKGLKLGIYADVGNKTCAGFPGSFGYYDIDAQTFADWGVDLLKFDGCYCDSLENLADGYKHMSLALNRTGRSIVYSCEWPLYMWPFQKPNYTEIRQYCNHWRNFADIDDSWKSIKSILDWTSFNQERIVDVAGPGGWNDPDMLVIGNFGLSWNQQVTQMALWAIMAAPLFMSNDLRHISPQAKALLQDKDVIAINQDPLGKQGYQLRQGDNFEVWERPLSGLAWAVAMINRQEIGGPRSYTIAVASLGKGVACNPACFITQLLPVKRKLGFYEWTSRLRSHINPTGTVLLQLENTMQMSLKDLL
Active calls of the source: *; ? = inconclusive; · = no result given; & = joins results of further samples. An excerpt, so the mix of outcomes need not match the whole.

miR-21 reporter,molecule,Rango-impB inh,Rango release inh,GLA inh pH 4.5
3%,CCC(C(=O)NC(C)(C)C)N(Cc1ccco1)C(=O)Cn1nnc(-c2ccc(F)cc2)n1 (centres undefined),0.1%,0%,-1
2%,CC(CCc1ccccc1)N1CCN(C)CC1 (centres undefined),2.6%,-11%,·
-9%,CC(=O)CSc1nnc(CSc2ncccn2)n1C1CCCCC1,-4.8%,-15%,4
8%,CCC(C)(C)NC(=O)CN(C(=O)c1ccc(N2CCCC2)nc1)c1ccc(F)cc1,1.3%,-1%,·
-8%,Cc1onc(-c2ccccc2Cl)c1C(=O)Nc1ccc(N2CCOCC2)cc1,-0.9%,2%,-3
·,Cc1ccc(S(=O)(=O)N2CCCCC2)cc1NC(=O)c1ccc(Cl)nc1,1.2%,4%,·
-21%,NC(=O)c1ccc(NC(=O)C2COc3ccccc3O2)cc1 (centres undefined),-2.7%,12%,·
-3%,COc1ccc(-c2csc(C3=C(O)CN(Cc4ccc(S(N)(=O)=O)cc4)C3=N)n2)cc1OC,7.2%,8%,5
-1%,Cc1cccc(C)c1NC(=O)N1CC=CCC1,2.8%,13%,·
-10%,O=S(=O)(NCc1cn2ccccc2n1)c1ccccc1F,-0.3%,1%,4
0%,O=C(NCC1CCCO1)c1nnc(Cc2ccc(F)cc2)o1 (centres undefined),3.9%,19%,-3
5%,CC1=CC(C)(C)NC(=S)N1c1cccc2cc(S(=O)(=O)O)ccc12,-3.1%,0%,-1

miR-21 reporter,molecule,Rango-impB inh,Rango release inh,GLA inh pH 4.5
5%,CCOC(=O)C1CCN(C(=O)C2c3ccccc3C(=O)N(C)C2c2ccc(OC)cc2)CC1 (centres undefined),-2.6%,1%,-4
-5%&-50%,Cc1cccc(OCC(=O)Nc2nnc(S(=O)(=O)N3CCCCCC3)s2)c1,-1.8%,9%,·
8%,N#Cc1ccc(C23CC4(C2)[C@H](CN(CC2CCCCC2)[C@@H]4c2ccccc2)C3c2ccc(C(F)(F)F)cc2)cc1 (some centres undefined),·,·,-2&-3
-3%,CNC(=O)Nc1ccc2nc(C)oc2c1,-1.5%,3%,-15
-7%,CC1CCN(c2ccc(C(=O)O)cc2NS(=O)(=O)c2ccc(Br)cc2)CC1,0.6%,1%,-11
-37%,Cc1[nH]n(-c2ccccc2)c(=O)c1/C=C1/C=c2ccccc2=N1,-1.5%,1%,-14
-4%,Cc1cc(=O)oc2c3c(cc(OCC(=O)NCC(=O)N[C@H](C(=O)O)C(C)C)c12)OC(C)(C)CC3,1.0%,-7%,·
-1%,Cc1ccc(C(=O)CC(C(=O)O)c2cn(CCC#N)c3ccccc23)cc1 (centres undefined),-0.4%,-3%,-20
1%,COc1ccc(OCCC(=O)OCC(=O)Nc2cccc(S(=O)(=O)N3CCOCC3)c2)cc1,-0.7%,-13%,-4
-10%,CCOC(=O)N1CCN(C(=O)c2cn(CCOC)c(=O)c3c2c2ccccc2n3C)CC1,-2.6%,2%,2
3%,O=C(O)CC1(CC(=O)N2CCOCC2)CCCC1,3.8%,-15%,·
-25%,COc1ccccc1N/C=C/c1onc(C)c1[N+](=O)[O-],?,?,1

miR-21 reporter,molecule,Rango-impB inh,Rango release inh,GLA inh pH 4.5
-3%,CC1(C)CC(=O)C2=C(C1)N(N1CCOCC1)C(N)=C(C#N)C2c1cccnc1 (centres undefined),-0.4%,8%,-2
-1%&0%,Cc1ccc(N(C)S(=O)(=O)c2nnc(NC(=O)c3ccco3)s2)cc1,-1.0%,5%,·
7%,Cc1ccc(NC(=O)Cn2ccsc2=N)c([N+](=O)[O-])c1,-2.6%,13%,6
?,CC(C)n1cnc2c(N(C)c3ccccc3)nc(N(CCN(C)C)Cc3ccccc3)nc21,4.7%,5%,-26
-5%,CCOC(=O)N1CCN(C(=S)Nc2ccccc2C)CC1,2.8%,-1%,-6
30%,COc1cccc(CNC(=O)Cc2ccc(-c3ccccc3)cc2)c1,3.9%,-5%,·
-31%,CC(C)N=C1NN=C(c2cccs2)CS1,-1.9%,3%,0
·,Cc1ccccc1C(=O)NNC(=O)c1ccc2nc[nH]c2c1,-2.4%,-26%,·
3%,O=C(NC1CCN(C(=O)c2cccs2)CC1)c1ccccc1,1.5%,-13%,-3
-44%,CCCC(CCC)=NNC(=O)c1ccccc1F,0.2%,5%,5
0%,CC(CN1C(C)CCCC1C)OC(=O)c1cccc(F)c1 (centres undefined),1.8%,1%,·
-7%,CC1Cc2ccccc2N1C(=O)COc1nc2ccccc2nc1N1CCOCC1 (centres undefined),1.0%,-1%,6

Two of the compounds above, with values under each structure:
Values run as follows: miR-21 reporter, Rango-impB inh, Rango release inh, GLA inh pH 4.5
> Cc1[nH]n(-c2ccccc2)c(=O)c1/C=C1/C=c2ccccc2=N1
 : -37%, -1.5%, 1%, -14
> COc1ccc(OCCC(=O)OCC(=O)Nc2cccc(S(=O)(=O)N3CCOCC3)c2)cc1
 : 1%, -0.7%, -13%, -4

New compounds follow:
miR-21 reporter,molecule,Rango-impB inh,Rango release inh,GLA inh pH 4.5
?,CN1CCN(c2ccc(NC(=O)c3ccc(-c4ccc(Br)cc4)o3)cc2)CC1,1.7%,22%,2
-1%,C/C(=N\O)C(=O)NCCN1CCCCC1,-3.4%,-12%,2
-16%,CSc1nncn1/N=C/c1ccc2c(c1)OCO2,-0.3%,0%,6
-5%,COc1ccc2[nH]c(=O)c(CN(Cc3ccc4c(c3)OCO4)C(C)=O)cc2c1,?,-28%,-7
·,CC1CC(C)CN(S(=O)(=O)CCNC(=O)c2ccccc2)C1 (centres undefined),-2.5%,6%,·
-4%,COCCn1c(=NC(=O)c2ccc3c(c2)OCO3)c(C#N)cc2c(=O)n3cccc(C)c3nc21,·,·,-7
·,COc1ccc(NS(=O)(=O)c2cccc(C(=O)NNC(=O)c3ccc(=O)[nH]c3)c2)cc1,1.6%,6%,·
-12%,N#C/C(=C1\CCCN1)c1nc2ccccc2c(=O)[nH]1,-0.8%,-10%,-6
-6%,CC(Oc1ccc(Cl)cc1Cl)C(=O)Nc1ccc2oc(-c3ccncc3)nc2c1 (centres undefined),0.5%,6%,-1
·,Cc1ccc(C(=O)OCC(=O)c2ccc(CC(=O)N3CCOCC3)s2)cc1C,?,?,·
-4%,Cc1ccc(C2C(C#N)=C(N)N(N(C)C)C3=C2C(=O)CCC3)cc1 (centres undefined),3.6%,-8%,-1
2%,COc1ccc(N2CC(C(=O)Nc3cccc(OC(C)C)c3)CC2=O)cc1 (centres undefined),-3.7%,?,·

miR-21 reporter,molecule,Rango-impB inh,Rango release inh,GLA inh pH 4.5
2%,COc1cc(C(CCN2CCCC(C)C2)c2c(OC)cc(OC)c3c2OC(=O)CC3c2ccc(N(C)C)cc2)cc(OC)c1OC (centres undefined),-3.5%,2%,-6
-57%,Cc1[nH]c2ccccc2c1C(=O)C(=O)Nc1ccc2c(c1)OCO2,0.4%,-2%,·
·,c1ccc(CN2CCOCC2)nc1,0.0%,-4%,·
-13%,N#C/C(=C/c1ccc(CNS(=O)(=O)c2ccccc2)o1)C(=O)NCc1ccccc1,-0.7%,1%,-16
·,CCC1(C(N)=O)CC2C=CC1C2 (centres undefined),0.5%,-4%,·
?,C=C(C)COc1ccc(-c2n[nH]c(C)c2-c2ccc(OC)c(OC)c2)c(O)c1,-1.4%,-1%,-8
·,Cc1cc(Br)ccc1NC(=O)CN(C)C(=O)c1cc([N+](=O)[O-])ccc1N1CCOCC1,1.9%,8%,·
-5%,CN1CCN(S(=O)(=O)c2ccc(-c3noc(C4CCN(S(C)(=O)=O)CC4)n3)cc2)CC1,6.7%,19%,4
-13%,COc1ccc(S(=O)(=O)N(C)CC(=O)NCCC2=CCCCC2)cc1OC,0.4%,27%,2
-21%,Cc1ccsc1C(=O)N1CCCC(CO)(Cc2ccccc2)C1 (centres undefined),-2.6%,16%,·
-5%,Cc1cc(N2CCN(C)CC2)nc2ccc(NC(=O)CCC(=O)NCCCOC(C)C)cc12,2.5%,-10%,·
-9%,O=C1Nc2ccccc2O/C1=C\c1ccccc1,-1.4%,-24%,·

Reprinted from the part before: 4 entries; new compounds follow.
miR-21 reporter,molecule,Rango-impB inh,Rango release inh,GLA inh pH 4.5
-13%,COc1ccc(S(=O)(=O)N(C)CC(=O)NCCC2=CCCCC2)cc1OC,0.4%,27%,2
-21%,Cc1ccsc1C(=O)N1CCCC(CO)(Cc2ccccc2)C1 (centres undefined),-2.6%,16%,·
-5%,Cc1cc(N2CCN(C)CC2)nc2ccc(NC(=O)CCC(=O)NCCCOC(C)C)cc12,2.5%,-10%,·
-9%,O=C1Nc2ccccc2O/C1=C\c1ccccc1,-1.4%,-24%,·
-1%,C=C(C)CSc1nnc(-c2cccc(S(=O)(=O)N(C)C)c2)n1-c1cc(OC)ccc1OC,-9.7%,5%,-12
15%,CCN(C(=O)c1cnc(NC(C)C)cc1C(F)(F)F)c1ccc(Cl)cc1,6.8%,-11%,-9
-1%,COCCCN1C(=O)C(=O)/C(=C(/O)c2ccc(S(=O)(=O)N3CCOCC3)cc2)C1c1cccc(Cl)c1 (centres undefined),-5.5%,?,·
-1%,CC(C)C(C)NC(=O)COC(=O)c1cccc(C(=O)OCC(=O)NC(C)C(C)C)n1 (centres undefined),10%,11%,5
-12%,O=C(CC1N=C2c3ccccc3N=C(SCc3ccc(Cl)cc3)N2C1=O)NCc1ccco1 (centres undefined),0.5%,0%,0
8%,COc1ccc2c(CC(=O)OCC(=O)Nc3cccc(S(N)(=O)=O)c3)coc2c1,-2.6%,-8%,2
8%,CCOc1ccc(N(CC(=O)Nc2cccc(F)c2)S(=O)(=O)c2c(C)noc2C)cc1,-3.1%,9%,-7
1%,CC(C)NC(=O)CSc1nc(-c2cccs2)cc(-c2ccccc2)c1C#N,-3.6%,4%,-11
-2%,Cc1cc(CNCc2c(C(=O)N(C)Cc3ccccc3)nc3ccccn23)nn1C,-3.6%,1%,6
-13%,CN1CCN(c2cc(C(F)(F)F)nc3ccc(F)cc23)CC1,-2.8%,-13%,2
-9%&-2%,COc1ccc(NC(=O)CCS(=O)(=O)c2cccc3nonc23)cc1Cl,2.2%,23%,·
·,Cc1ccccc1C(=O)N1CCC(C(=O)Nc2ccccn2)CC1,-3.4%,1%,·

miR-21 reporter,molecule,Rango-impB inh,Rango release inh,GLA inh pH 4.5
-55%,O=C(Nc1ccc2c(c1)CCC2)c1ccc(Br)s1,-1.6%,17%,1
-36%,O=c1oc2ccc3ccccc3c2cc1-c1nnc(-c2ccccc2)o1,?,?,6
-4%,N#Cc1ccc(-c2ccc3c(c2)OCO3)nc1SCC(=O)OCc1ccccc1,?,?,19
0%,COc1cccc(N2CC(C(=O)Nc3nnc(SCC(=O)Nc4ccc(NC(C)=O)cc4)s3)CC2=O)c1 (centres undefined),0.3%,-8%,·
-46%,CC(=O)NCCN=C(C)c1sc2ccccc2c1O,?,?,-9
-5%,CC1(C)Cc2c(sc(NC(=O)COc3ccc(Cl)cc3)c2C#N)C(C)(C)N1,-0.6%,-6%,·
-4%,CCN(CC)C1CCN(Cc2cn[nH]c2-c2ccc(OC)c(F)c2)C1 (centres undefined),-3.6%,5%,10
-1%,COc1ccc(-c2c(C)n([O-])c(C)c(C)[n+]2=O)cc1OC,1.3%,3%,7
-2%,CC1=NN(c2ccccc2)C(=O)C1/C=C1/NC(=S)NC1=O (centres undefined),?,?,-1
-1%,CCOC(=O)C1CCN(Cc2ccc(C(=O)OC)cc2)CC1,0.7%,-12%,-11

Profiles, looked up by structure. Values in the order: miR-21 reporter | Rango-impB inh | Rango release inh | GLA inh pH 4.5
CC1=NN(c2ccccc2)C(=O)C1/C=C1/NC(=S)NC1=O (centres undefined) reads -2% | ? | ? | -1
COc1ccc(-c2c(C)n([O-])c(C)c(C)[n+]2=O)cc1OC reads -1% | 1.3% | 3% | 7
